# KCNQ2 pot: potentiators of rat KCNQ2 potassium channel; Potassium voltage-gated channel subfamily KQT member 2 (Rattus norvegicus), O88943; B-score at 10 µM; AID 2239, 2010; hit rate 0.54% among 310,000; CHO-K1 KCNQ2, FluxOR thallium flux fluorescence; active compounds read high;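 active = fluorescence ratio B-score at least 3 SD of library B-scores, with initial fluorescence B-score within 3 SD, cut at about 5.3 in these data; same plate scores as AID 2156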;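 note: B-score of peak minus minimum over baseline fluorescence ratio after K+ and Tl+ stimulus; positive B-score means potentiation of KCNQ2 with more thallium influx and brighter signal; only the inactives scoring about 0 or higher are listed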
# Target sequence (O88943 whole entry, looked up): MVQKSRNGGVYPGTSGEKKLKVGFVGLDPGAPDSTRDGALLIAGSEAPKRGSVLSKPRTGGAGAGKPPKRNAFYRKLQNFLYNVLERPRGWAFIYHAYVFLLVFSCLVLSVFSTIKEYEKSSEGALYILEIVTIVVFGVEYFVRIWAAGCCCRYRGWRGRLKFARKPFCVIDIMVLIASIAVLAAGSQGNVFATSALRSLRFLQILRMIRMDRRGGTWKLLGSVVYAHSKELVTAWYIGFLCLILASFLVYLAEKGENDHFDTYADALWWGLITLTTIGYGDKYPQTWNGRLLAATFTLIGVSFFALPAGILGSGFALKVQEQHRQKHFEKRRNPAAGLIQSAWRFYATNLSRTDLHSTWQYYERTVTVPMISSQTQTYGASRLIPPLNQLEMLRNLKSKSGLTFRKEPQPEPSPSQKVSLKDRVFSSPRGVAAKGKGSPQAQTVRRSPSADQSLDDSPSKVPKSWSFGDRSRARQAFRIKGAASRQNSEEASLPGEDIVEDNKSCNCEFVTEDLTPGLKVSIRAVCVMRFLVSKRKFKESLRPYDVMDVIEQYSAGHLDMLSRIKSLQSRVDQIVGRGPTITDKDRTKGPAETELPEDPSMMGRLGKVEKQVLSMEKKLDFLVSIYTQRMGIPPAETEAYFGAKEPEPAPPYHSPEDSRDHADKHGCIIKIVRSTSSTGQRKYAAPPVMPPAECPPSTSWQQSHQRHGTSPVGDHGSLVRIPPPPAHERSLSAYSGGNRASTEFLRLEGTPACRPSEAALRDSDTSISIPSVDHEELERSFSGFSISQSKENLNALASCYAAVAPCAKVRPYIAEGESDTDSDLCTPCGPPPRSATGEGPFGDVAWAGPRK
# KCNQ2 pot baseline: further read-out of KCNQ2 pot, marked with its call; B-score; compound at 10 µM; measured here: initial fluorescence intensity artifact check;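 brightness before thallium and not channel activity; 0 = typical well and far values either way flag optical interference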
# An asterisk follows results filed as active. This is a subset (hit frequency here may not be typical).
SMILES,KCNQ2 pot,KCNQ2 pot baseline
CCCCCN(C(=O)CCC(=O)OCC(=O)N1CCCCC1C)c1c(N)n(CCCC)c(=O)[nH]c1=O (configuration not stated),1.8,-0.32
COC(=O)CSc1nnc(CNC(=O)c2cccc(C)c2)n1-c1ccccc1OC,0.41,1.6
COc1ccc(S(=O)(=O)NCCCCCC(=O)O)cc1C(=O)O,1.6,-1.2
COc1cc(NC(=S)NCCN2CCOCC2)cc(OC)c1,1.4,0.1
CCOCCOC(=O)C1=C(C)N(C)C(=O)NC1c1cc(Cl)c(O)c(OCC)c1 (configuration not stated),0.81,-0.09
Cc1ccc2occ(/C=N/NC(N)=S)c(=O)c2c1,0.38,1.7
Nc1nc(-c2ccc3c(c2)OCCO3)cs1,1.4,-1.4
Cn1nnnc1SCC(=O)Nc1ccc(Oc2ccccc2)cc1,0.75,-0.98
CN1CCCCC1=NCCCn1cnc2c1c(=O)n(C)c(=O)n2C,0.5,0.83
COC(=O)CCN(C(=O)c1ccc(C)c([N+](=O)[O-])c1)c1ccccn1,0.24,0.54
COc1ccc(CCNc2oc(-c3ccc(OC)c(OC)c3)nc2C#N)cc1,0.89,0
CNC(=O)CCn1nc(-c2ccccc2)c2ccccc2c1=O,0.73,-1
Cc1cc2c(c(SCC(=O)NCCc3ccccc3)n1)C(=O)OC2,0.61,-0.83
C=CCC1NS(=O)(=O)OC(COC)C1C (configuration not stated),0.25,0.63
O=C(O)c1ccccc1C(=O)c1ccc2c(c1)CCC2,0.91,-0.02
O=C(NCC1CCCO1)c1cccc(C(=O)NCC2CCCO2)c1 (configuration not stated),0.44,1.1
C=CC(O)(C#CCN(CC)CC)c1ccccc1 (configuration not stated),1.6,-0.64
Cc1c(Cc2ccccc2)sc(N)c1C(N)=O,0.01,-2.9
CC(=O)OCC(=O)NCC(=O)c1c[nH]c2ccccc12,0.28,0.5
Cc1ccsc1/C=N/NC(=O)CNC(=O)c1cccc([N+](=O)[O-])c1C,0.05,0.79
C=CCn1c(-c2ccc(N)cc2)nc2ccccc21,0.16,-2
O=C(CSc1nnc(COc2cccc3cccnc23)o1)N1CCc2ccccc21,0.25,-0.88
O=C(C(=O)N1CCN(c2ccccc2)CC1)c1c[nH]c2ccccc12,0.23,-0.34
CC1(C(=O)NCc2ccc(Cl)c(Cl)c2)Oc2cccnc2NC1=O (configuration not stated),1.4,-0.63
Cc1ccc(N2C(=O)CC(N(CCc3ccccc3)C(=S)Nc3ccc(N(C)C)cc3)C2=O)cc1 (configuration not stated),1.3,0.05

# Carrying on.
SMILES,KCNQ2 pot,KCNQ2 pot baseline
CCc1nn(C(C)C(=O)NCCN2CCCCCC2)c(=O)c2cc3occc3n12 (configuration not stated),0.45,-0.4
Cc1cc(-c2cc(C(=O)Nc3ccccc3)on2)nc(NC2CCCC2)n1,1.4,2
CCN1C(=O)[C@H]2[C@@H](c3ccc(C)cc3)N3C(=O)N(c4ccccc4)C(=O)[C@@]3(Cc3ccc(Cl)cc3)[C@H]2C1=O,1.6,-2
CC(=O)Nc1ccc(C(=O)c2ccccc2)cc1,0.62,-0.9
COc1ccccc1C(=O)OCCN1CCOCC1,2.3,0.15
O=C(O)CC(c1ccccc1F)N1Cc2ccccc2C1=O (configuration not stated),0.18,0.63
N#CC1(NC(=O)COC(=O)CN2C(=O)c3ccccc3C2=O)CCCCC1,0.87,0.68
Fc1cccc(CN2CCN(c3nc4nonc4nc3NC3CC3)CC2)c1,0.18,0.57
CCN1C(=O)N[C@@H](CCc2ccccc2)C(C(C)=O)=C1C,0.93,0.76
O/N=C(\c1ccc2c(c1)OCCO2)C1CCCCC1,0.36,-0.76
COc1ccc(NC(=O)COc2ccc(-c3nn(C)c(=O)c4ccccc34)cc2)cc1,1.1,-1.1
COc1c(Cl)ccc(Cl)c1C(=O)NCc1ccco1,1.3,0.42
Cc1nn(Cc2ccc(C(=O)Nc3nccs3)cc2)c(C)c1Cl,0.31,1.8
CCCCc1c(C)nc(N)[nH]c1=O,0.52,-1.5
O=c1n(CCCN2CCN(c3cccc(Cl)c3)CC2)nc2ccccn12,0.96,-0.78
Cn1c(CN2CCCCC2)nc2cc(NC(=O)c3cccs3)ccc21,2.2,-0.66
Cc1cccn2c(=O)c3cc(C(=O)NCC4CCCO4)c(=N)n(C4CCCCC4)c3nc12 (configuration not stated),3.8,-3.1
CC(C)n1c(SCC(=O)NCc2ccco2)nc2c1c(=O)n(C)c(=O)n2C,0.26,1.9
O=C(Nc1cccc(Cl)c1)Nc1nnc(CSCCOc2ccc(Cl)cc2)s1,0.34,0.96
N#CCCN(Cc1ccccc1)C(=O)Nc1ccc(F)cc1,0.08,-0.53
C/C(=N\OC(=O)c1cccc(C)c1)c1sc(-c2ccccc2)nc1C,0.89,-0.8
COCCNC(=S)N(CCc1c(C)[nH]c2ccc(F)cc12)Cc1cccnc1,1.4,0.41
Cc1noc(C)c1C(=O)OCC(=O)NCCC1=CCCCC1,1.2,1.3
O=C(Cc1ccc(Cl)cc1)Nc1ccc(S(=O)(=O)Nc2ncccn2)cc1,0.25,-0.08
O=C(CN1CCN(Cc2ccc(Cl)cc2)C1=O)NCCCN1CCOCC1,0.01,-0.01

# Next section:
SMILES,KCNQ2 pot,KCNQ2 pot baseline
COc1ccc(-n2ncc3c(N4CCCCC4)ncnc32)cc1,0.77,-0.43
O=C(N/N=C/c1ccc2c(c1)OCO2)c1ccc(NC(=O)c2ccc(F)cc2)cc1,1.1,-0.8
COc1ccc(Cl)cc1S(=O)(=O)n1nnc2ccccc21,0.52,2
COCCNC(=O)CCCn1c(=O)c2ccccc2n(CC(=O)NCCC2=CCCCC2)c1=O,0.26,-1.7
Nc1ccc(-c2nc3ncccc3o2)c(O)c1,1.7,0.06
Cc1ccccc1CN(c1ccc(C(N)=O)cc1)S(C)(=O)=O,0.92,0.42
Cc1nc(-c2cccc(S(=O)(=O)N3CCOCC3)c2)cs1,0.57,0.82
COc1ccc(-c2c3c(cc(C)[n+]2[O-])oc2ccc(OC)cc23)cc1,0.16,-1.1
CC(C)c1ccc(NC(=O)C2C3C=CC4(O3)C2C(=O)N(CCCN2CCCCC2)C4C(=O)NC2CCCCC2)cc1 (configuration not stated),0.27,0.41
CCCN(CCC)CCCNC(=O)CNC(=O)c1nn(-c2ccc(OC)cc2)c(=O)c2ccccc12,1.9,0.14
CC/S(CC1CC1(Cl)Cl)=N\S(=O)(=O)c1ccc(C)cc1 (configuration not stated),1.4,1.2
O=C(NC(=S)Nc1ccc(Br)cn1)c1cncc(Br)c1,0.55,0.57
Cn1c(N=Nc2ccc(N3CCOCC3)cc2)[n+](C)c2ccccc21,0.27,-2.5
Cn1c(=O)[nH]c(=O)c2c1ncn2CCN1CCOCC1,0.03,0.84
N#C/C(=C\N1CCOCC1)c1ccccc1,0.52,-3.3
O=C(Nc1ccc(F)c(F)c1)C1CCN(S(=O)(=O)c2cccc3nonc23)CC1,0.36,0.84
N/C(=N\OC(=O)C12CC3CC(CC(C3)C1)C2)c1ccncc1,0.61,-0.13
Nc1n[nH]c(-c2ccccc2[N+](=O)[O-])n1,0.53,0.11
CCCn1c(CCNC(=O)c2ccco2)nc2ccccc21,2.2,-0.52
CCCCN(CCCC)c1nc2ccccc2nc1NS(=O)(=O)c1ccc(NC(C)=O)cc1,0.01,0.1
CCCC1(C(=O)OC)NC(c2ccco2)C2C(=O)N(C)C(=O)C21 (configuration not stated),1.7,-0.35
O=C(Nc1ccc(-n2ccnc2P(=O)(O)c2ccccc2)cc1)c1ccccc1Br,1.9,-1
CCOC(=O)C(C)NC(=O)c1cn(-c2ccc(OC)cc2)c(=O)c2ccccc12 (configuration not stated),0.45,-2.7
CC1(C)OC(=O)C(=NNc2ccc(Br)cc2)C(=O)O1,1.8,0.03
O=C1CCCc2nn(-c3ccccc3)nc21,0.88,-1.2

# The listing continues:
SMILES,KCNQ2 pot,KCNQ2 pot baseline
COCCCNC(=O)CNC(=O)c1nn(-c2ccc(OC)c(Cl)c2)c(=O)c2ccccc12,0.94,0.79
O=C1CCCN1CCCNc1ncnc2c1[nH]c1ccccc12,2.7,-1.8
COc1cc(NC(=S)NC(=O)CC(C)C)ccc1NC(=O)c1cc2ccccc2o1,0.33,0.73
CCOC(=O)CSc1nc2ccccc2c(=O)[nH]1,1.2,0.04
CC1=C(C(=O)OCC2CCCCC2)C(c2cccc(O)c2)NC(=O)N1 (configuration not stated),17*,-0.76*
CC(=O)c1c(O)cc(=O)n(-c2ccccc2)c1-c1ccc(C)cc1,1.7,-2
COc1ccc(Cl)cc1NC(=O)CSc1nc(N2CCOCC2)nc(N2CCOCC2)n1,1.2,-0.57
CC1c2[nH]c3ccccc3c2CCN1C(=O)Nc1ccccc1 (configuration not stated),4.2,0.58
Cc1noc2c1C(c1ccc(N(C)C)cc1)C1=C(CC(C)(C)CC1=O)N2 (configuration not stated),0.6,-0.82
COc1ccc(/C=N/Nc2ncc(C(F)(F)F)cc2Cl)cc1OC,0.04,-1.5
CC1(C)Cc2c(cnn2-c2ccc(F)cc2)C(NC(=O)CN2CCCC2=O)C1 (configuration not stated),0.67,-2
O=C(c1ccc(=O)[nH]n1)N1CCN(S(=O)(=O)c2ccc3ccccc3c2)CC1,0.34,-0.91
O=C(O)CCSc1nc2ccccc2c(=O)[nH]1,1.4,0.03
Cc1ccc(O)c(Nc2nc(-c3ccccc3)nc3ccccc23)c1,0.61,1.5
O=C1CC(/C=C/c2ccc([N+](=O)[O-])cc2)=Nc2ccccc2N1,1.9,2
COC(=O)[C@@H]1C[C@@]2(O)[C@@H](O)[C@@H](O)[C@@H](O)C[C@H]2N1CC(c1ccccc1)c1ccccc1,0.5,-1.4
N#Cc1ccccc1S(=O)(=O)Nc1ccc2c(c1)C(=O)OC2,0.48,-0.08
COc1ccc(N2CCN(C(=O)Cn3nnc(-c4ccccc4N)n3)CC2)cc1,0.9,-0.19
CCc1nnc(NS(=O)(=O)c2ccc(NC(=O)c3cccc(OC)c3)cc2)s1,1.7,-0.33
COc1ccc(NC(C)=O)cc1NC(=O)CN1CCN(c2ccccn2)CC1,0.1,-1.1
COc1ccccc1OCc1ccc(C(=O)NCCN(C)C)o1,1.2,-1.3
O=c1c2c3n(c(=S)nc2[nH]n1-c1ccccc1)CCCCC3,0.92,0
CCCCCCCCCSc1n[nH]c(N)n1,1.6,1.3
c1coc(-c2nc(-c3ccncc3)no2)c1,0.72,0.14
CCOc1ccc(N2C(=O)/C(=C/c3ccco3)N(C)C2=S)cc1,2,0.56

# Part of the list above, bar-delimited.
smiles | KCNQ2 pot | KCNQ2 pot baseline
CCCCCN(C(=O)CCC(=O)OCC(=O)N1CCCCC1C)c1c(N)n(CCCC)c(=O)[nH]c1=O (configuration not stated) | 1.8 | -0.32
COC(=O)CSc1nnc(CNC(=O)c2cccc(C)c2)n1-c1ccccc1OC | 0.41 | 1.6
COc1ccc(S(=O)(=O)NCCCCCC(=O)O)cc1C(=O)O | 1.6 | -1.2
COc1cc(NC(=S)NCCN2CCOCC2)cc(OC)c1 | 1.4 | 0.1
CCOCCOC(=O)C1=C(C)N(C)C(=O)NC1c1cc(Cl)c(O)c(OCC)c1 (configuration not stated) | 0.81 | -0.09
Cc1ccc2occ(/C=N/NC(N)=S)c(=O)c2c1 | 0.38 | 1.7
Nc1nc(-c2ccc3c(c2)OCCO3)cs1 | 1.4 | -1.4
Cn1nnnc1SCC(=O)Nc1ccc(Oc2ccccc2)cc1 | 0.75 | -0.98
CN1CCCCC1=NCCCn1cnc2c1c(=O)n(C)c(=O)n2C | 0.5 | 0.83
COC(=O)CCN(C(=O)c1ccc(C)c([N+](=O)[O-])c1)c1ccccn1 | 0.24 | 0.54
COc1ccc(CCNc2oc(-c3ccc(OC)c(OC)c3)nc2C#N)cc1 | 0.89 | 0
CNC(=O)CCn1nc(-c2ccccc2)c2ccccc2c1=O | 0.73 | -1
Cc1cc2c(c(SCC(=O)NCCc3ccccc3)n1)C(=O)OC2 | 0.61 | -0.83
C=CCC1NS(=O)(=O)OC(COC)C1C (configuration not stated) | 0.25 | 0.63

# (further entries)
SMILES,KCNQ2 pot,KCNQ2 pot baseline
CCOc1ccc(C(=S)N2CCCC2)cc1OCC,0.32,-0.01
COc1cc(/C=N/NC(=O)Cc2ccccc2)ccc1Oc1ccc([N+](=O)[O-])cc1[N+](=O)[O-],0.78,-0.68
CCN(CC)S(=O)(=O)c1cc(NC(=O)CSc2nc3c(cc2C#N)C(=O)CC(C)(C)C3)ccc1C,1.1,-1.3
CCCCC(C(=O)NCCC(C)C)N(CCCN1CCOCC1)C(=O)c1snc(C(N)=O)c1N (configuration not stated),0.5,0.82
O=C(Nc1nnc(-c2ccc(F)cc2)s1)c1ccco1,1.8,0.06
CCC1(c2ccc(F)cc2)NC(=O)N(CC(=O)N2CCN(S(=O)(=O)c3ccc(Cl)cc3)CC2)C1=O (configuration not stated),0.81,-0.66
Cc1ccc(C(=O)NCC2CCCO2)cc1S(=O)(=O)N1CCCCC1 (configuration not stated),1.9,0.01
Cc1ccc(F)cc1NC(=O)C12CC3CC(C1)CC(n1cnc([N+](=O)[O-])n1)(C3)C2,1.1,2.3
O=C(Nc1ccccc1)ON=C1CCCC1,1.3,-1.8
CN(CP(=O)(O)CCc1ccccc1)S(C)(=O)=O,2.1,-1.3
COCCNC(=O)CCC(=O)NNc1nc2ccccc2c2nc(-c3ccccc3)nn12,0.48,-1.1
CCOC(=O)N1CCC(NC(=O)c2cc(C(=O)NC3CCN(Cc4ccccc4)CC3)ccc2CO)CC1,0.16,0.58
COc1ccc(Cn2c(CO)cnc2SCC(=O)Nc2cccc(NC(C)=O)c2)cc1,0.52,-0.28
c1cnc2ccc(C(c3nnnn3C3CCCCC3)N3CCN(C4CCCCC4)CC3)cc2c1 (configuration not stated),0.02,0.39
C(=N\n1cncn1)/c1ccc(N2CCOCC2)cc1,0.94,-1.1
COc1ccc(S(=O)(=O)NCCSc2ccccc2)cc1OC,1.6,0.27
O=C(NC(=S)Nc1nc2ccccc2s1)c1ccco1,8.1*,1.6*
COc1ccc(-c2cn(/N=C/c3ccc(Cl)cc3Cl)c(N)n2)cc1,0.04,-1.4
Cc1ccccc1Sc1ccc(N)cn1,1.3,-0.71
